# Ecoli rRNA inh – reduced GFP signal of wild-type E. coli, primary screen, bacterial rRNA inhibitor project, GFP/RFP fluorescence, OD600, single point; E. coli WT GFP vs humanized-ribosome RFP mutants, 24 h; active compounds read low; DMSO median 0, no signal -100; GFP signal change (wild-type ribosome), % (concentration not given with the values); actives 1.6% (n = 350,000); AID 720706, 2013;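 active means significant combined selectivity score with lowered wild-type GFP, culture density cut under 30%, mutant RFP and density less affected; inactive means any of these conditions unmet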; further: one replicate is shown; some compounds called inactive have numbers as strong as hits
# Calb FLC – C. albicans growth inhibition with fluconazole, primary screen, CaCi-2 strain, Alamar Blue fluorescence; growth inhibition, % (test concentration not listed); actives 0.57% (n = 300,000); C. albicans CaCi-2 (fluconazole-resistant clinical isolate) + fluconazole, 48 h; AID 1979, 2009;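 active means most replicates above 75%; inconclusive means exactly half above 75%; inactive means most below 75%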;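 further: all wells also contain fluconazole at 8 µg/ml as a sub-toxic cotreatment; 0% = median of DMSO wells and 100% = median of geldanamycin control wells; wells of about 8 µL received 7.5 nL stock; the first replicate is given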
# ALR H2O2 inh – inhibitors of human ALR sulfhydryl oxidase, primary screen, biochemical, H2O2 detection, HRP-luminol luminescence, single point; FAD-linked sulfhydryl oxidase ALR (Homo sapiens), P55789; AID 485317, 2010; actives 3.8% (n = 290,000); purified ALR, DTT oxidation; inhibition, % (concentration not given with the values);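 active means mean and each replicate at 75% or more; inconclusive means only one of the two met; inactive means neither met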;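 further: stock transfer was 7.5 nL into about 7.5 µL; 0% = neutral wells and 100% = wells with inactivated enzyme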
# Target sequence (P55789 whole entry, looked up): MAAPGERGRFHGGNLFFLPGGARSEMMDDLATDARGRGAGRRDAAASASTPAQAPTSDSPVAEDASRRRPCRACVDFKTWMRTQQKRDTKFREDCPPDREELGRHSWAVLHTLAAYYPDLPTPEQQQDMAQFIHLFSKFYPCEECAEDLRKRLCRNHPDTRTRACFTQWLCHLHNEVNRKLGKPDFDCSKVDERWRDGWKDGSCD
# RanGTP-Impb inh – inhibitors of RanGTP-importin-beta interaction, primary screen, biochemical, FRET, CFP-Ran, YFP-importin-beta, homogeneous | Ran GTPase (GTP-bound) - importin-beta complex | cell-free CFP-Ran/YFP-importin-beta FRET ratio | inhibition, % (test concentration not listed) | actives 1.1% (n = 300,000);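 active means most replicates above 15%; inconclusive means exactly half above 15%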;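 further: 0% = DMSO wells and 100% = Ran loaded with GDP instead of GTP; wells of about 40 µL received 100 nL stock; the first replicate is given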
# FGF22 binding – binders of human FGF22 protein, primary screen, FGF22 synaptogenesis inhibitor project, biophysical, thermal shift, single point | actives 1.5% (n = 340,000) | Fibroblast growth factor 22 (Homo sapiens), Q9HCT0 | calls only at 9.99 µM | AID 651658, 2012 | recombinant FGF22 thermal shift, SYPRO orange fluorescence; percent of sucrose octasulfate shift, DMSO zero;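 active means melting point raised past a set limit in the mean and every replicate; inconclusive means no clear call; three in four hits are not shown here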
# Target sequence (Q9HCT0 whole entry, looked up): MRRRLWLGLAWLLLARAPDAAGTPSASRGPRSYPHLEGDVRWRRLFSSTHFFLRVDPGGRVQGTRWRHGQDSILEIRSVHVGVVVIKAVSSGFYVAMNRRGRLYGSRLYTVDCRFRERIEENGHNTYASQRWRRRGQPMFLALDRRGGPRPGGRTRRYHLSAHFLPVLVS
# Beta cell apopt – inhibitors of cytokine-induced beta cell apoptosis, primary screen, luminescence; INS-1E cytokine-induced death, ATP luminescence, 48 h; percent of positive-control rescue, neutral wells zero; protection from apoptosis, % (no concentration beside the values); actives 0.8% (n = 300,000);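 active means all replicates at 75% or more, or half of them and the mean; inconclusive means half reach 75% but not the mean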;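 further: 0% = cytokine-treated negative control wells and 100% = positive control rescue; higher means more ATP so stronger rescue from cytokine killing; wells of about 40 µL received 100 nL stock; the first replicate is given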
# T cruzi repl – inhibitors of intracellular T. cruzi growth, primary screen, luminescence, NIH3T3 host cells; T. cruzi beta-gal in NIH3T3, 90 h; inhibition, % (concentration not given with the values); actives 1.4% (n = 300,000); AID 1885, 2009;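 active means mean inhibition across valid replicates above about 55%, limit read from the data; inconclusive means mean below that limit but half or more replicates reach it; inactive means mean below it, under half of replicates reach it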;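 further: signal also drops with host cell toxicity which is not excluded here; 0% = plate median of DMSO wells and 100% = zero luminescence signal; higher percent means less beta-gal luminescence so fewer parasites; stock transfer was 50 nL into about 50 µL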
# AF4-AF9 inh – inhibitors of AF4 peptide binding to AF9, primary screen, biochemical, AlphaScreen, biotin-AF4 peptide, FLAG-AF9, single point; inhibition, % at 10 µM; actives 0.47% (n = 350,000); AID 651704, 2012;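 active means every replicate reaching a set inhibition limit, whatever the replicate mean, cut at about 25% in these data; inconclusive means mean inhibition reaches that limit but some replicates miss it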;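 further: 0% = plate neutral control median and 100% = total signal loss; the record names both 10 and 1 µM as test concentration; the first replicate is given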
# Target sequence (P42568 whole entry, looked up): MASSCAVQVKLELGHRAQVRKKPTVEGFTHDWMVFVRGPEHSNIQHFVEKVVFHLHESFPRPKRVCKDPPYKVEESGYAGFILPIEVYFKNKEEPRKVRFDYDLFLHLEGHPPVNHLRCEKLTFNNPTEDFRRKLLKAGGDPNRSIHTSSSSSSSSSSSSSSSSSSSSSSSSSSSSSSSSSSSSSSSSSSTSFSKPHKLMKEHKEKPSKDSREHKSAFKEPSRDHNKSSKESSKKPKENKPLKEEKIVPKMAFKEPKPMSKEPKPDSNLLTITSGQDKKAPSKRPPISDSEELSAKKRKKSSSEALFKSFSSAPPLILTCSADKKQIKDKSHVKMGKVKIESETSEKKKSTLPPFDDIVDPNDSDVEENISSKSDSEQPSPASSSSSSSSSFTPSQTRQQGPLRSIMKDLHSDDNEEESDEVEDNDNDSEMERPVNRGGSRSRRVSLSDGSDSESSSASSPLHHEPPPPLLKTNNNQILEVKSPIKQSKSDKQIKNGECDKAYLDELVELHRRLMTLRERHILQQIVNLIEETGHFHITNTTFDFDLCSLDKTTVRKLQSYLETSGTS
# Ecoli rRNA inh OD600 – second read-out of Ecoli rRNA inh, no call of its own (marks repeat the call); OD600 change, %; measured here: OD600 growth;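 optical density of the mix in the first replicate; 0 = DMSO median and -100 = no signal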
# Ecoli rRNA inh RFP – second read-out of Ecoli rRNA inh, no call of its own (marks repeat the call); RFP signal change, %; measured here: RFP humanized mutant strains;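 first replicate; 0 = DMSO median and -100 = no signal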
# * hit, by the source's call; i = inactive; ? = inconclusive; · = not tested or not shown. Not all compounds are listed; the hit share may differ from the screen's.
No.	SMILES	Ecoli rRNA inh	Ecoli rRNA inh OD600	Ecoli rRNA inh RFP	Calb FLC	ALR H2O2 inh	RanGTP-Impb inh	FGF22 binding	Beta cell apopt	T cruzi repl	AF4-AF9 inh
1	Cc1cccc(C2(c3cccc(C)c3)CC2C(=O)NCC2CCCO2)c1 (centres undefined)	-16	-19	-17	1	-6	2.5	i	-3	4	2.8
2	O=C(CCC(=O)OCC(F)(F)C(F)F)Nc1ccc(Cl)cc1	·	·	·	-17	2	·	·	-2	1	·
3	CC(=O)c1c(C)nc(-c2ccc(Cl)cc2)nc1N	21	13	-0.3	-7	-5	-7.7	·	3	-30	-0.6
4	Cc1ccc(-c2ocnc2C(=O)N2CCOCC2)cc1	16	23	0.8	-3	-1	4.9	i	-6	-8	-2.9
5	COc1ccc(NC(=O)CSc2nnc3ccc(-c4ccccn4)nn23)cc1OC	14	7	3.3	9	0	-6.9	i	-4	8	-0.8
6	Cn1ccnc1C(O)c1cccc(OCc2ccccc2)c1 (centres undefined)	-6	-14	2.6	7	-14	0.8	i	-3	-14	3.2
7	Cc1ccc(NC(=O)CNC(=O)c2ccco2)nc1	17	19	-0.2	-2	-21	-2.2	i	-4	-17	-1.8
8	COc1cccc(NC(=S)N(Cc2ccc(C(=O)O)cc2)Cc2ccc(OC)c(OC)c2)c1	15	9	0.0	1	·	-0.4	·	-3	-11	-1.7
9	Cc1ccc(N2C(=O)c3ccccc3C2(O)c2ncc[nH]2)cc1 (centres undefined)	·	·	·	-8	-3	1.6	·	3	-2	·
10	O=C(CSC1=NCCS1)NC1CCCC1	·	·	·	-1	25	-1.2	·	4	-3	·
11	CCOc1ccc(CCNC(=O)c2cccc(S(=O)(=O)N3CCOCC3)c2)cc1OCC	5	12	-0.6	·	-4	6.9	i	2	-4	-18
12	O=[N+]([O-])c1cc([N+](=O)[O-])c2n[nH]c(-c3ccccc3)c2c1	33	10	6.2	42	-4	2.5	i	14	71*	-0.6
13	O=C(COC(=O)C1Cc2ccccc2CN1C(=O)c1ccccc1Cl)Nc1ccc(N2CCOCC2)cc1 (centres undefined)	·	·	·	-3	-9	-4.5	·	0	-16	·
14	COc1ccc(NC(=S)Nc2cc(S(=O)(=O)N3CCCCC3)ccc2OC)cc1	·	·	·	-28	2	0.5	·	-6	-10	·
15	C=CCN(C)NC(=O)Nc1ccccc1	25	12	3.5	12	-5	·	i	-2	-6	-1.8
16	Cc1cccc(-c2nnc(SCC(=O)Nc3cccc(C(=O)N4CCOCC4)c3)n2C)c1	2	5	14	-2	-1	1.7	i	5	2	4.9
17	COc1ccc(C(=O)COC(=O)/C=C/c2ccccc2[N+](=O)[O-])cc1	-13	-21	-5.7	·	·	·	i	-2	·	0.9
18	COc1ccc(CNc2nc3ccccc3n2C)c(OC)c1	8	2	0.5	3	37	-3.9	i	8	0	-1.5
19	CS(=O)(=O)Nc1ccc(C(=O)NCc2ccccn2)cc1	·	·	·	-9	-3	·	·	-3	1	·
20	O=C(N/N=C/c1ccc(N2CCOCC2)cc1)c1ccccc1OCCOc1ccccc1	-1	-9	4.2	-1	8	-1.6	i	·	28	-1.0
21	COc1cc(NC(=O)c2ccc(NC3=NC4CS(=O)(=O)CC4S3)cc2)cc(OC)c1 (centres undefined)	-2	1	0.1	4	-3	3.6	i	1	-3	-8.0
22	O=C(CCn1ccc([N+](=O)[O-])n1)NC1CCCCCC1	·	·	·	-2	2	-2.0	i	-7	6	-6.3
23	C/C(CC(=O)Nc1ccccc1-c1ccccc1)=N\NC(=O)COc1ccc(C)cc1Br	·	·	·	3	-5	6.4	·	-5	-3	·
24	CCCSc1nnc(CSc2nc3nc(C)cc(C)n3n2)o1	·	·	·	6	0	3.4	·	·	8	·
25	Cc1cc(C)nc(N/C(=N\S(=O)(=O)Cc2ccccc2)Nc2cccc(Cl)c2C)n1	·	·	·	25	-12	-1.5	·	-10	19	·
26	O=C(COC(=O)CCC(=O)c1ccc(F)cc1)Nc1ccccc1	-9	0	2.9	-4	7	6.3	i	-10	-4	-1.6
27	COCCOC(=O)C1=C(C)NC(=O)NC1c1cccs1 (centres undefined)	·	·	·	4	-4	1.4	·	-1	-14	·
28	C=CCn1cnnc1SCC(=O)N(C1CCCCC1)C1CCS(=O)(=O)C1 (centres undefined)	5	8	-1.7	·	-10	·	i	0	·	-2.8
29	CCOC(=O)CCSc1n[nH]c(=S)s1	-21*	-9.2*	1.8*	7	·	3.4	i	-6	-13	1.6
30	CC1CCCCC1NC(=O)Cn1[nH]c(=O)c2ccccc2c1=O (centres undefined)	·	·	·	-4	0	2.9	·	2	4	·
31	CCn1c(SCC(=O)NC2CCCC2)nnc1-c1ccco1	5	3	1.7	-5	·	1.0	i	-4	-2	-0.1
32	Cc1ccc2nc(NC(=O)CN3C(=O)C4CC=CCC4C3=O)sc2c1 (centres undefined)	-25*	-18*	-2.3*	-13	-4	·	i	-1	·	-3.6
33	Cc1ncc(CN2CCCC(C(=O)Nc3ccc(-c4cccc(F)c4)cc3)C2)s1 (centres undefined)	-31*	-21*	-1.6*	15	-8	-0.8	i	-11	35	0.7
34	C=CCNC1=C(Cl)C(=O)N(c2ccccc2Cl)C1=O	-3	-13	-15	22	-1	-7.5	i	-13	-8	1.0
35	CCC1(C)CC(CC(=O)O)(c2ccccc2OC)CCO1 (centres undefined)	·	·	·	2	3	1.9	·	5	5	·
36	C=CCn1cccc(C(=O)Nc2cc(OC)c(OC)c(OC)c2)c1=O	-2	-12	-0.5	-2	-2	0.0	i	1	2	0.3
37	O=C(NNC(=O)c1cc2ccccc2cc1O)c1cccs1	-13	-8	-2.2	91*	-7	-15	i	4	-15	0.0
38	CCCc1ccc(-c2cc(C(=O)NCCc3ccc(S(N)(=O)=O)cc3)c3ccccc3n2)cc1	·	·	·	12	-16	-3.0	·	6	30	·
39	COc1cc(S(=O)(=O)n2nc(C)cc2C)c(OC)cc1Cl	3	4	-0.4	11	-5	3.9	i	-5	-16	-1.6
40	COc1ccc(Cl)cc1NC(=O)C(C)OC(=O)c1ccc(NS(=O)(=O)c2ccc3[nH]c(=O)[nH]c3c2)cc1 (centres undefined)	·	·	·	0	-1	?	·	-5	-12	·
41	N/C(=N\OC(=O)Nc1ccccc1)c1ncc([N+](=O)[O-])s1	15	2	-1.1	-11	-33	0.7	i	10	9	-2.6
42	Cn1cc(SCC(=O)Nc2ccc3c(c2)OCCO3)c2ccccc21	-6	-15	-4.8	-2	99*	-5.0	i	2	-3	1.3
43	CC(C)c1onc(C(=O)N2CCCCCC2)c1[N+](=O)[O-]	14	4	-1.8	23	8	7.1	i	1	-10	-0.4
44	Cc1cc(-n2c(=S)sc3c(=O)n(-c4ccc(F)cc4)c(SCC(=O)O)nc32)ccc1Cl	-11	-6	3.1	0	24	-5.3	i	-6	-4	-6.8
45	COc1cc(OC)cc(-c2nnc(SCC(=O)N3CCCc4ccccc43)o2)c1	·	·	·	-2	-3	1.3	·	-2	19	·
46	CCn1c(SCc2ccccc2)nnc1-c1cccnc1	14	5	-1.5	7	9	4.1	·	-6	-15	1.9
47	COc1ccc(NC(=S)N2CCCCC2c2cccnc2)cc1 (centres undefined)	-12	-5	-4.3	-6	-4	5.3	i	-4	48	0.5
48	CC(C)C(=O)Nc1ccc(N2CCCC2)cc1	·	·	·	6	13	2.8	·	-1	1	·
49	CCC1(c2ccccc2)C(=O)N(C(=O)OC(C)(C)C)N1C(=O)OC(C)(C)C (centres undefined)	7	2	-4.6	9	11	2.4	i	-9	-5	-0.4
50	CCCCCSc1nnc(-c2ccccc2NC(C)=O)c(=O)[nH]1	19	12	-0.5	-11	2	0.8	i	-2	-20	-1.9

# Remaining list, next part:
No.	SMILES	Ecoli rRNA inh	Ecoli rRNA inh OD600	Ecoli rRNA inh RFP	Calb FLC	ALR H2O2 inh	RanGTP-Impb inh	FGF22 binding	Beta cell apopt	T cruzi repl	AF4-AF9 inh
51	O=c1[nH]c(-c2ccccc2)ncc1Oc1ccccc1	-4	-1	-0.8	-7	-6	2.9	i	-7	12	0.2
52	CC1CCN(C(=O)CCc2nnc3ccc(N4CCC5(CC4)OCCO5)nn23)CC1	3	-1	-1.5	0	-3	-0.6	i	2	5	2.5
53	CC(NC(=S)Nc1ccccc1Cl)C(c1ccccc1)N1CCOCC1 (centres undefined)	-17	-23	-3.2	7	3	0.9	i	-2	5	4.6
54	CCc1ccccc1OCC(=O)Nc1ccc(S(N)(=O)=O)cc1	·	·	·	?	3	5.6	·	-2	-17	·
55	O=C(Nc1ccncc1)Nc1ccc(Br)cc1Cl	6	2	-2.1	50	-6	-0.3	i	-1	56*	-4.5
56	CCOc1ccc(-c2nc(CSc3nncs3)cs2)cc1OC	·	·	·	-2	94*	1.5	·	4	1	·
57	O=C(CC(=O)c1ccccc1[N+](=O)[O-])c1ccccc1	·	·	·	-36	0	1.6	·	0	7	·
58	Cc1cc(C)cc(OCc2nnc(SCC(=O)c3ccc(Br)cc3)o2)c1	·	·	·	-26	0	1.7	·	-1	12	·
59	N=c1c2c3c(sc2ncn1N)CCC3	·	·	·	-19	-15	-0.7	i	-1	-2	-1.5
60	CCNC(=S)N(CCN(CC)CC)Cc1cc2cc3c(cc2[nH]c1=O)OCCO3	14	9	7.2	7	-7	-15	·	-9	0	3.7
61	CCc1ccc(Nc2n[n+](-c3ccccc3)c(/C=C/c3ccccc3)s2)cc1	·	·	·	-6	-3	-1.1	·	12	36	·
62	Cc1ccc(C2/C(=C(/O)c3cnn(-c4ccccc4)c3C)C(=O)C(=O)N2CCN2CCOCC2)o1 (centres undefined)	·	·	·	29	·	1.6	·	1	-19	·
63	C=CCOc1ccc2c(CC)cc(=O)oc2c1C	0	-2	-4.2	-2	-1	5.5	i	5	1	2.7
64	C=CCc1ccccc1OCC(O)CN1CCOCC1 (centres undefined)	·	·	·	0	-1	-2.5	i	·	-6	-2.6
65	CCC(=O)N1CCN(c2ccc(NC(=O)c3ccc(N4CCOCC4)c([N+](=O)[O-])c3)cc2)CC1	9	11	3.5	-1	-11	1.0	i	-1	3	0.5
66	CC(=O)NC(CC(=O)NC1CCCc2ccccc21)c1ccccc1 (centres undefined)	6	-2	1.1	4	-8	2.7	i	3	-4	-1.1
67	C/C(=N\NC(=O)Cn1ccc(C(F)(F)F)n1)c1ccc2c(c1)OCO2	15	13	0.3	6	-3	1.4	i	-8	-14	0.2
68	Cc1cc(S(=O)(=O)NCC(c2ccc3c(c2)OCO3)N2CCOCC2)ccc1F (centres undefined)	2	10	-0.5	-6	0	3.0	i	-1	-1	6.5
69	Cc1ccc(S(=O)(=O)Nc2cccnc2)cc1	·	·	·	11	-1	-3.2	·	-11	3	·
